Bioassay records from PubChem BioAssay.
Vaccinia inh: Vaccinia orthopox stage-specific inhibition; activity change (mCherry), % (test concentration not listed); Vaccinia-infected cells, mCherry/Venus stage reporter fluorescence; hits give low values; some inactives read as strong as hits; 0.01% of 89,000 active;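 active = mCherry past -33% and 40 or more points under the early reporter, replicates agreeing; inconclusive = past -33% without that gap or agreement; tested in A549 cells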;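 also: scaled between vehicle wells and reference inhibitor wells; 23 nL library stock went into each well; one replicate is shown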
Vaccinia inh Venus: further read-out of Vaccinia inh, marked with its call; activity change (Venus), %; measured here: Venus reporter, other viral stage;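 negative = less Venus signal; first of two replicates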
* marks the source's active call; other numbers are inactive results; ? = inconclusive; nt = no result given. A portion of the library, so the mix of outcomes need not match the whole.

SMILES	Vaccinia inh	Vaccinia inh Venus
CN(C)CC(=O)N[C@H]1CC[C@@H](CCNS(=O)(=O)c2ccccc2)O[C@@H]1CO	1.1	5.5
CCC(=O)N1[C@@H](C#N)[C@@H](c2ccccc2-c2cccc(C)c2)[C@@H]1CO	-19.8	-14.0
CCCNC(=O)N1C[C@H]2[C@@H](c3ccccc31)[C@@H](CO)N2C(=O)NC(C)C	10.1	12.3
C[C@@H]1CN([C@@H](C)CO)S(=O)(=O)c2ccc(-c3cccc(F)c3)cc2O[C@H]1CN(C)C	-28.4	-20.1
Cc1noc(C)c1S(=O)(=O)Nc1cccc2c1O[C@@H](CN(C)Cc1ccc(Cl)c(Cl)c1)[C@@H](C)CN([C@@H](C)CO)C2=O	8.9	3.2
C[C@@H]1CN([C@H](C)CO)C(=O)c2cc(NC(=O)CCC(F)(F)F)ccc2O[C@@H](C)CCCCO[C@@H]1CN(C)Cc1ccc2c(c1)OCO2	?	nt
C[C@@H]1CN([C@@H](C)CO)C(=O)c2c(c3ccccc3n2C)-c2ccccc2CO[C@H]1CN(C)Cc1cccc(C(F)(F)F)c1	?	nt
COc1cccc(C(=O)Nc2ccc3c(c2)C(=O)N(C)[C@@H]2CC[C@@H](CC(=O)NCC4CC4)O[C@H]2CO3)c1	1.9	-0.8
C[C@@H]1CN([C@H](C)CO)C(=O)c2cccc(NC(=O)CCCCCC(=O)Nc3ccccc3N)c2O[C@@H]1CN(C)S(=O)(=O)c1cn(C)cn1	-1.6	-9.1
CCCN(C)C[C@@H]1Oc2cc(C#Cc3ccc(F)cc3)ccc2S(=O)(=O)N([C@H](C)CO)C[C@@H]1C	-24.4	-25.4
CC(=O)N(C)C[C@@H]1Oc2cc(-c3ccc(F)cc3)ccc2S(=O)(=O)N([C@@H](C)CO)C[C@@H]1C	3.8	2.2
C[C@H]1CN([C@@H](C)CO)C(=O)Cc2cc(NC(=O)CCC(F)(F)F)ccc2O[C@H]1CN(C)Cc1ccccc1	-17.0	-6.0
CC(C)NC(=O)Nc1ccc2c(c1)C(=O)N([C@@H](C)CO)C[C@H](C)[C@@H](CN(C)C(=O)CCCN(C)C)OCCCC[C@@H](C)O2	14.3	7.2
CN(C)CC(=O)N[C@H]1C=C[C@@H](CC(=O)NCCN2CCCCC2)O[C@H]1CO	-7.3	-1.1
O=C(Cc1ccncc1)NCC[C@@H]1CC[C@@H](NC(=O)C2CC2)[C@H](CO)O1	0.4	1.0
C[C@H]1CN([C@@H](C)CO)C(=O)c2cc(NC(=O)C3CCCCC3)ccc2O[C@H]1CN(C)CC1CCCCC1	-3.6	6.0
CN(C)CCCNC(=O)C[C@@H]1CC[C@H]2[C@H](COc3ccc(NS(C)(=O)=O)cc3C(=O)N2C)O1	-0.7	1.9
CCCNC(=O)N(C)C[C@H]1Oc2ncc(C#Cc3ccccc3F)cc2C(=O)N([C@H](C)CO)C[C@@H]1C	5.6	2.3
C[C@@H]1CN([C@@H](C)CO)C(=O)CCCn2nncc2CO[C@@H]1CN(C)C(=O)Nc1ccc(C(C)(C)C)cc1	8.7	10.7
C[C@@H]1CN([C@@H](C)CO)C(=O)c2cc(NS(=O)(=O)c3ccc(F)cc3)ccc2O[C@H]1CN(C)S(=O)(=O)c1ccc(Cl)cc1	1.6	9.5

Exported as labelled records: entries from further up
Molecule: CCCNC(=O)N1C[C@H]2[C@@H](c3ccccc31)[C@@H](CO)N2C(=O)NC(C)C
  Vaccinia inh: 10.1
  Vaccinia inh Venus: 12.3
Molecule: COc1cccc(C(=O)Nc2ccc3c(c2)C(=O)N(C)[C@@H]2CC[C@@H](CC(=O)NCC4CC4)O[C@H]2CO3)c1
  Vaccinia inh: 1.9
  Vaccinia inh Venus: -0.8
Molecule: CCCN(C)C[C@@H]1Oc2cc(C#Cc3ccc(F)cc3)ccc2S(=O)(=O)N([C@H](C)CO)C[C@@H]1C
  Vaccinia inh: -24.4
  Vaccinia inh Venus: -25.4

Additional records
SMILES	Vaccinia inh	Vaccinia inh Venus
CC(C)C#Cc1ccc2c(c1)O[C@@H](CN(C)C(=O)CC1CC1)[C@H](C)CN([C@@H](C)CO)S2(=O)=O	-28.6	-17.7
O=C(Nc1ccc(F)cc1)N1CCCCN2[C@H](C1)[C@H](c1ccc(C3=CCCCC3)cc1)[C@@H]2CO	0.4	-1.4
C[C@@H]1CCCCO[C@@H](CN(C)C(=O)Nc2cccc3ccccc23)[C@@H](C)CN([C@@H](C)CO)C(=O)c2cc(NS(=O)(=O)c3ccc(Cl)cc3)ccc2O1	15.7	20.5
C[C@H](CO)N1C[C@H](C)[C@H](CN(C)S(=O)(=O)c2cccs2)Oc2ccc(NC(=O)CCN3CCOCC3)cc2CC1=O	14.0	9.9
CS(=O)(=O)Nc1ccc2c(c1)[C@@H]1C[C@H](CC(=O)NCc3ccc(Cl)cc3)O[C@H](CO)[C@@H]1O2	8.8	13.5
C[C@@H]1CN([C@@H](C)CO)C(=O)c2cc(NC(=O)Nc3ccc(C(F)(F)F)cc3)ccc2O[C@@H](C)CCCCO[C@H]1CN(C)Cc1ccccc1	?	nt
COc1ccc(NC(=O)Nc2ccc3c(c2)[C@H]2C[C@@H](CC(=O)NCc4ccccn4)O[C@@H](CO)[C@H]2O3)cc1	1.0	3.8
C[C@@H]1CN([C@@H](C)CO)C(=O)CCCn2cc(nn2)CO[C@@H]1CN(C)S(=O)(=O)c1ccc(C#N)cc1	20.2	15.1
COc1ccc(S(=O)(=O)N(C)C[C@@H]2OCCCC[C@H](C)Oc3ccc(NC(=O)c4ccncc4)cc3C(=O)N([C@H](C)CO)C[C@H]2C)cc1	12.7	6.1
C[C@H]1CN([C@@H](C)CO)C(=O)c2cc(-c3cccnc3)cnc2O[C@H]1CN(C)C(=O)Nc1ccccc1	19.5	13.7
C[C@@H]1CN([C@@H](C)CO)S(=O)(=O)c2ccc(C#CCN(C)C)cc2O[C@H]1CN(C)C(=O)Nc1ccccc1F	-9.8	-3.2
Cc1noc(C)c1NC(=O)N(C)C[C@@H]1Oc2cc(C#CCC(C)C)ccc2S(=O)(=O)N([C@H](C)CO)C[C@H]1C	?	nt
N#C[C@@H]1[C@@H](c2ccc(-c3ccccc3F)cc2)[C@H](CO)N1C(=O)c1ccccn1	-4.5	2.5
C[C@H]1CN([C@@H](C)CO)C(=O)c2cc(NC(=O)CCCCCC(=O)Nc3ccccc3N)ccc2O[C@@H]1CN(C)C(=O)Nc1ccc(C(F)(F)F)cc1	-3.6	-4.4
C[C@@H]1CCCCO[C@@H](CN(C)C(=O)Cc2ccccc2)[C@@H](C)CN([C@@H](C)CO)C(=O)c2cc(NC(=O)Cc3ccccc3)ccc2O1	-2.7	-2.9
C[C@@H]1CCCCO[C@@H](CN(C)C(=O)Nc2cccc3ccccc23)[C@H](C)CN([C@H](C)CO)C(=O)c2cc(NS(=O)(=O)c3ccc(Cl)cc3)ccc2O1	-5.8	-3.6
CC(C)CC#Cc1ccc2c(c1)O[C@H](CN(C)C(=O)CN(C)C)[C@H](C)CN([C@H](C)CO)S2(=O)=O	-18.4	-18.2
COc1ccc(CN(C)C[C@@H]2OCCCC[C@@H](C)Oc3ccc(NS(=O)(=O)c4cccs4)cc3C(=O)N([C@H](C)CO)C[C@H]2C)cc1	?	nt
CCCN(C)C[C@@H]1Oc2cc(C#CC3(O)CCCC3)ccc2S(=O)(=O)N([C@@H](C)CO)C[C@@H]1C	-3.5	-7.8
COc1ccc2c3c(n(C)c2c1)[C@@H](CO)N(Cc1ccncc1)CC31CCN(C(=O)C2CCCC2)CC1	-28.7	-15.9
O=C(N[C@H]1CC[C@@H](CCNS(=O)(=O)c2ccc(F)cc2)O[C@H]1CO)c1ccccn1	-1.4	-0.9
CCC(=O)N1[C@@H]2Cn3c(cccc3=O)[C@H]1[C@@H](C(=O)NC1Cc3ccccc3C1)[C@@H]2CO	15.2	11.4
C[C@H](CO)N1C[C@H](C)[C@@H](CN(C)C(=O)c2ccncc2)Oc2cc(C#CC3(O)CCCC3)ccc2S1(=O)=O	14.2	8.6
C[C@H](CO)N1C[C@H](C)[C@@H](CN(C)C(=O)C2CCC2)Oc2ncc(-c3cccc(F)c3)cc2C1=O	2.9	3.0
C[C@H](CO)N1C[C@H](C)[C@H](CN(C)C(=O)C2CCCCC2)Oc2ncc(C#CC3(O)CCCC3)cc2C1=O	0.2	3.9
COc1ccc(NC(=O)N[C@@H]2CC[C@@H](CCn3cc(-c4ccccn4)nn3)O[C@H]2CO)cc1	3.7	9.7
COCC#Cc1ccc([C@H]2[C@@H](CO)N3CCCCN(S(=O)(=O)c4ccccc4C)C[C@@H]23)cc1	?	nt
COc1ccc(CN(C)C[C@@H]2Oc3ccc(NC(=O)Nc4cccc5ccccc45)cc3CC(=O)N([C@H](C)CO)C[C@@H]2C)cc1	-24.2	-13.2
Cc1ccccc1S(=O)(=O)NCC[C@@H]1CC[C@H](NS(=O)(=O)c2ccccc2C)[C@H](CO)O1	-12.4	-4.4
COc1ccc(NC(=O)N(C)C[C@H]2Oc3c(NC(=O)C4CC4)cccc3C(=O)N([C@H](C)CO)C[C@@H]2C)cc1	11.8	13.3
CCCN1[C@H](C(=O)Nc2nccs2)[C@@H](CO)[C@@H]2Cn3c(ccc(-c4ccccc4OC)c3=O)[C@@H]21	6.6	3.7
CCC(=O)Nc1ccc2c(c1)C(=O)N(C)[C@H]1CC[C@H](CC(=O)NC3Cc4ccccc4C3)O[C@H]1CO2	9.3	13.6
C[C@@H]1CN([C@@H](C)CO)S(=O)(=O)c2ccc(C3=CCCC3)cc2O[C@H]1CN(C)C(=O)c1cnccn1	4.4	11.9
O=C(C[C@H]1C=C[C@@H](NC(=O)c2ccccc2)[C@H](CO)O1)NCc1ccncn1	-9.3	-3.1
C[C@@H]1CN([C@@H](C)CO)C(=O)c2cc(C#C[C@@H](C)O)cnc2O[C@@H]1CN(C)C(=O)CN(C)C	14.7	16.0
O=C(C[C@@H]1CC[C@@H]2[C@H](COC[C@H](O)CN2Cc2ccccc2)O1)N[C@@H]1CCN(Cc2ccccc2)C1	-22.1	-18.7
CC(C)NC(=O)N1[C@H](CO)[C@H](c2ccc(C#CC3CCCC3)cc2)[C@@H]1C#N	7.7	2.4
CO[C@@H](CN(C)S(=O)(=O)c1cccc(Cl)c1)[C@H](C)CN([C@@H](C)CO)S(=O)(=O)c1ccc(Cl)cc1	?	nt
Cc1ccc(S(=O)(=O)Nc2ccc3c(c2)C(=O)N([C@H](C)CO)C[C@H](C)[C@@H](CN(C)C(=O)NC2CCCCC2)OCCCC[C@@H](C)O3)cc1	14.9	7.3
CNC[C@@H]1Oc2c(NS(=O)(=O)c3ccc(Cl)cc3)cccc2C(=O)N([C@@H](C)CO)C[C@@H]1C	-5.7	-1.1
COc1cccc(-c2ccc3c(c2)[C@H]2[C@H](CCN2C(=O)c2ccc4c(c2)OCO4)[C@H](CO)N3C)c1	-30.9	-21.3
C[C@H]1CN([C@@H](C)CO)C(=O)c2cccc(NC(=O)C3CCOCC3)c2O[C@H]1CN(C)S(=O)(=O)c1ccc(Cl)cc1	9.5	4.3
Cc1ccccc1S(=O)(=O)N1[C@@H]2CNC[C@H]1[C@@H]2c1ccc(-c2ccc(C#N)cc2)cc1	-9.8	14.8
C[C@@H](O)C#Cc1cnc2c(c1)C(=O)N([C@@H](C)CO)C[C@H](C)[C@@H](CN(C)C(=O)c1ccccc1F)O2	2.4	-8.6
C[C@@H]1CCCCO[C@@H](CN(C)S(C)(=O)=O)[C@@H](C)CN([C@H](C)CO)C(=O)c2cc(NC(=O)NC3CCCCC3)ccc2O1	18.7	3.0
C[C@@H]1CCCCO[C@@H](CN(C)C(=O)Nc2cccc3ccccc23)[C@H](C)CN([C@@H](C)CO)C(=O)c2cc(NC(=O)Nc3ccc(F)cc3)ccc2O1	30.6	14.0
COc1ccc(S(=O)(=O)N(C)C[C@@H]2OCCCC[C@@H](C)Oc3ccc(NS(C)(=O)=O)cc3C(=O)N([C@@H](C)CO)C[C@@H]2C)cc1	11.8	1.5
COc1ccccc1S(=O)(=O)N[C@H]1CC[C@@H](CCNC(=O)C2CC2)O[C@@H]1CO	9.4	7.8
C[C@@H]1CN([C@H](C)CO)C(=O)c2cccc(NC(=O)c3ccc(-c4nccs4)cc3)c2O[C@H]1CN(C)C(=O)Nc1ccc2c(c1)OCO2	8.6	2.9
O=C(CCN1CCCCC1)NCC[C@H]1CC[C@H](NC(=O)C2CCCC2)[C@H](CO)O1	5.4	3.6
COc1ccc(S(=O)(=O)N[C@@H]2CC[C@H](CC(=O)NCc3ccccc3F)O[C@@H]2CO)cc1	-1.2	5.9
CS(=O)(=O)Nc1ccc2c(c1)[C@H]1C[C@H](CC(=O)NCc3ccccn3)O[C@H](CO)[C@H]1O2	3.1	6.6
CCS(=O)(=O)Nc1ccc2c(c1)C(=O)N(C)[C@H]1CC[C@H](CC(=O)NCc3ccc(OC)cc3)O[C@@H]1CO2	14.0	7.5
Cc1ccc(-c2cnc3c(c2)C(=O)N([C@@H](C)CO)C[C@H](C)[C@@H](CN(C)C(=O)c2cccnc2)O3)cc1	24.7	11.9

Compound profiles, as listed above.
`C[C@@H]1CN([C@H](C)CO)C(=O)c2cccc(NC(=O)c3ccc(-c4nccs4)cc3)c2O[C@H]1CN(C)C(=O)Nc1ccc2c(c1)OCO2` is listed as Vaccinia inh: 8.6; Vaccinia inh Venus: 2.9
`C[C@H]1CN([C@@H](C)CO)C(=O)c2cccc(NC(=O)C3CCOCC3)c2O[C@H]1CN(C)S(=O)(=O)c1ccc(Cl)cc1` is listed as Vaccinia inh: 9.5; Vaccinia inh Venus: 4.3
`COc1ccccc1S(=O)(=O)N[C@H]1CC[C@@H](CCNC(=O)C2CC2)O[C@@H]1CO` is listed as Vaccinia inh: 9.4; Vaccinia inh Venus: 7.8
